D2 PAM: Beta-Arrestin HTS for Positive Allosteric Modulators of the Human D2 Dopamine Receptor: Potentiators | D(2) dopamine receptor (Homo sapiens), P14416 | DiscoveRx D2 beta-arrestin cells, luminescence, 90 min; 100% = 57 uM dopamine signal | potentiation, % (test concentration not listed) | hit rate 0.23% among 360,000 | AID 624464, 2012; active = potentiation of 50% or more; inconclusive = 30% to 50%; inactive = 30% or less;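 further: compound concentration not given in the record; tested on top of an EC20 dose of dopamine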
Target sequence (P14416 whole entry, looked up): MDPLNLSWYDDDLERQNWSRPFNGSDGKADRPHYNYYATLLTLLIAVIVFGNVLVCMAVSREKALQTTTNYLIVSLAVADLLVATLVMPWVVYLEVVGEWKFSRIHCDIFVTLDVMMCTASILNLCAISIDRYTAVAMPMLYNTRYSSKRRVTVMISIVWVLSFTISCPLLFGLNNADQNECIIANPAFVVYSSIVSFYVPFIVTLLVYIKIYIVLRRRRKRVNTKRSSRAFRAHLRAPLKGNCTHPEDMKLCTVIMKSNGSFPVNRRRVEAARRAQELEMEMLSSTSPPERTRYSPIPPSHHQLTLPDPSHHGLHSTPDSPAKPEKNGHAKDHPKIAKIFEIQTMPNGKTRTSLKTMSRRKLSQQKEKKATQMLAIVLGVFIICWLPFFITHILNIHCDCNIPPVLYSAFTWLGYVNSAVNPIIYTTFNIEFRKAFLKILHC
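D2 cells co-treated with compound plus 50 nM dopamine (EC20) for 90 min at 37 deg C to detect potentiation. Beta-arrestin recruitment was read as enzyme-fragment luminescence after 1 h at ambient temperature. Full response was set by 57 uM dopamine.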
D2 agonist: Beta-Arrestin HTS for Positive Allosteric Modulators of the Human D2 Dopamine Receptor: Agonists; D(2) dopamine receptor (Homo sapiens), P14416; DiscoveRx PathHunter D2 beta-arrestin, luminescence, 90 min; 100% = 57 uM dopamine signal; activation, % (test concentration not listed); hit rate 0.084% among 360,000; AID 624465, 2012; in the data active = activation above about 40%; inconclusive = about 15% to 40%; inactive = below about 15%; further: compound concentration not given in the record; the text of the record calls up to 30% inactive
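DiscoveRx PathHunter D2 beta-arrestin cells (2,100/well) attached overnight, then compound-stimulated 90 min at 37 C in HBSS/10 mM HEPES/0.1% Tween-20 buffer; beta-galactosidase complementation read by luminescence after 1 h at ambient temperature. Dopamine 57 uM final (EC100) as control.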
Six1-Eya2 inh: qHTS Assay for Inhibitors of the Six1/Eya2 Interaction | hit rate 0.56% among 360,000 | AlphaScreen GST-Six1/His-Eya2 binding, biochemical; stronger effect = lower value; control for the full effect not named in the record | Homeobox protein SIX1 (Homo sapiens) + Protein phosphatase EYA2 (Homo sapiens), … | AID 651725, 2012 | activity change, % (no concentration beside the values); in the data active = activity change below about -65%; inconclusive = about -30% to -65%; inactive = above about -30%; further: on the % scale 0 is the no-effect control and ±100 the full control effect; compound concentration not given in the record
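Homogeneous AlphaScreen proximity assay pairing GST-Six1 with His-tagged Eya2 (added as 5X mix: 250 nM and 500 nM) in 50 mM Tris pH 8.0, 300 mM NaCl, 1 mM TCEP. Glutathione donor and nickel acceptor beads; 1 h, 37 °C, dark.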
CtBP-E1A blk: qHTS Assay for Inhibitors of the CtBP/E1A Interaction; CtBP / adenovirus E1A interaction (AlphaScreen); AlphaScreen GST-E1A/His-CtBP binding, 1536-well; stronger effect = lower value; control for the full effect not named in the record; activity change, % (test concentration not listed); hit rate 0.49% among 340,000; AID 651724, 2012; in the data active means activity change below about -65%; inconclusive means about -30% to -65%; inactive means above about -30%; further: on the % scale 0 is the no-effect control and ±100 the full control effect; compound concentration not given in the record
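AlphaScreen with 125 nM GST-E1A and 125 nM His-CtBP (5X stocks) in Tris pH 8.0, 300 mM NaCl, BSA, Tween 20, TCEP. Compounds preincubated 2 h at 37 deg C, then glutathione donor/nickel acceptor beads added for 1 h at 37 deg C in dark.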
TRPML1 ag: qHTS for Agonists of the Human Mucolipin Transient Receptor Potential 1 (TRPML1); activation, % (test concentration not listed); TRPML1-expressing cells, Ca2+ dye fluorescence, FDSS; host cell line not named in the record; reference of the full effect not given here; hit rate 0.12% among 410,000; in the data active = activation above about 50%; inconclusive = about 30% to 50%; inactive = below about 30%; further: 0% is about no effect; the text of the record puts the active cut at 80%
Target sequence (Q9GZU1 whole entry, looked up): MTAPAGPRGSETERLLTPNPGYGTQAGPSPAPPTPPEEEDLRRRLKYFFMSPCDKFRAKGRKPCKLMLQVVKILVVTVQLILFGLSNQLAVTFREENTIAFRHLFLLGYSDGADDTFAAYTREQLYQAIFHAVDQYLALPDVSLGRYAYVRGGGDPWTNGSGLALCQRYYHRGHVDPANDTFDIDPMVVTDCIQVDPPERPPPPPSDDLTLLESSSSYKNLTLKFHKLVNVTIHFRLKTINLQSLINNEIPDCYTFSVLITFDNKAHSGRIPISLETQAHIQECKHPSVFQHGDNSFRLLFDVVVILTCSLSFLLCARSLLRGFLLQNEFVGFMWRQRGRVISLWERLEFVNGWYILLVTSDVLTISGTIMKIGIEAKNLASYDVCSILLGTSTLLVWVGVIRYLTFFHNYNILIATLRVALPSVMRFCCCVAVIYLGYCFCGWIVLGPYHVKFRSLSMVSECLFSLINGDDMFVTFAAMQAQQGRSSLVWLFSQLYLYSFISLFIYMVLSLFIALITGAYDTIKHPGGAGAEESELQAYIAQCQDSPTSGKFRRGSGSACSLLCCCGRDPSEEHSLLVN
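Agonist activity was taken from a 110 s kinetic Ca2+ dye read on the FDSS after pinning compounds onto TRPML1-DL cells. The cells were seeded at 1,500/well with Tet inducer, incubated about 16 h, then dye-loaded at room temperature.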
PINK1 modulator: A Quantitative High throughput Screen to Identify Chemical Modulators of PINK1 Expression; hit rate 0.2% among 410,000; Potency, µM (highest dose often 76.6 µM), inactives show at the top dose activation (PINK1 increase), usual class: activators; PINK1 immunofluorescence, high-content cytometry, 24 h; active = well fitted activation curve with a large enough effect; inconclusive = small, poorly fitted or top-dose-only effect; inactive = flat fitted curve, though single readings scatter; cell line not stated here;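 further: potency means the concentration at half of the fitted maximal effect; % of control where 0% means no effect; nearly all actives have a fitted effect of over 65% in size; a mitochondrial uncoupler was the plate control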
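PINK1 protein level read as immunofluorescence by microplate cytometer in a fixed, stained stable cell line after 24 h exposure to five compound concentrations, with CCCP as control.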
* hit, by the source's call; ? = inconclusive; / = no result given; [ ] = remark or other dose.

SMILES | D2 PAM | D2 agonist | Six1-Eya2 inh | CtBP-E1A blk | TRPML1 ag | PINK1 modulator
Cc1cc(N2CCCC2=O)cc(C)c1S(=O)(=O)Nc1c(C)nn(C)c1C | -4.4 | -2.2 | -24.0 | 2.6 | -0.7 | -1.7%
CCc1nc2ccc(C(=O)NCc3ccc4c(c3)OCO4)cn2c1N(C)CCC(C)C | -3.5 | 4.6 | -12.2 | -5.0 | 0.2 | ?
O=C(Nc1ccccc1)Nc1nccs1 | 1.0 | -1.3 | -0.9 | 3.5 | -0.9 | -2.8%
COc1ccc(CC(=O)NCCc2cnc[nH]2)cc1 | -11.2 | -4.7 | -14.4 | -11.8 | / | -0.6%
Cc1ccc(CNC(=O)CN2c3cccc4cccc(c34)S2(=O)=O)cc1 | 2.0 | 7.0 | 0.9 | 3.8 | 0.1 | -0.8%
COc1ccc(CCn2c(-c3ccc(Cl)cc3)n[nH]c2=S)cc1OC | -0.9 | 10.4 | -0.6 | 4.7 | -0.7 | 1.2%
CC12CCC(=O)N1C(C(=O)Nc1nc3ccc(S(C)(=O)=O)cc3s1)CS2 (stereo unspecified) | -6.0 | 2.3 | 12.0 | 3.9 | 0.1 | 1.6%
Cn1c(=O)c2c(SCc3cccc(C(F)(F)F)c3)nc(-c3ccco3)nc2n(C)c1=O | -8.7 | 0.8 | 4.3 | 10.8 | 0.1 | 21.9%[38.3 µM]
COc1ccccc1S(=O)(=O)NCc1ccc(C(=O)N(C)Cc2ccc(F)cc2)cc1 | -4.0 | -2.3 | 3.4 | -15.8 | 0.3 | -0.1%
Cc1cc(=O)oc2cc3c(cc12)OCCN3 | -26.8 | -3.2 | -13.1 | -10.7 | -0.4 | -0.8%
COc1ccc([N+](=O)[O-])cc1NC(=O)C1C2C=CC(C2)C1C(=O)O (stereo unspecified) | -3.8 | -4.8 | 2.0 | 2.6 | -0.2 | 0.6%
COC(=O)c1ccc(NC(=O)Cn2c([N+](=O)[O-])cnc2C)cc1 | -5.5 | 1.9 | 5.1 | 4.0 | 1.0 | 0.1%
Cc1nn(-c2ccc(F)cc2)c(C)c1CN1CCN(CCC(C)C)C(CCO)C1 (stereo unspecified) | -8.3 | -5.5 | -8.8 | 2.7 | -0.3 | 0.1%
COc1cc(/C=C2\CCc3ccccc3C2=O)cc(OC)c1OC | 0.3 | -3.4 | -1.9 | 15.7 | 2.1 | -4.4%
CC(C)CCn1c(S(=O)(=O)O)nc2ccccc21 | 26.7 | -1.0 | 1.2 | -6.8 | 0.0 | 0.7%
COc1ccc(Nc2nc(CC(C)=O)ns2)cc1 | -5.3 | -2.2 | -2.8 | 3.5 | -0.6 | 0.6%
COc1cccc(/C=C/C(=O)OCC(=O)Nc2ccc3c(c2)OCCO3)c1 | -7.3 | -0.7 | 3.6 | 3.1 | -0.2 | 0.4%
O=C(NCc1ccco1)C1CCCN1C(=O)Nc1ccccc1Cl (stereo unspecified) | -3.1 | -0.6 | 2.5 | -0.2 | -0.2 | -0.8%
Cc1c(Cl)cccc1NC(=O)CSC(C)c1nc2ccccc2c(=O)[nH]1 (stereo unspecified) | -13.8 | -3.3 | 15.5 | 7.6 | 0.6 | 0.7%
CCC(C)NC(=O)CCS(=O)(=O)c1ccc(Br)s1 (stereo unspecified) | -6.9 | -1.0 | 2.9 | 14.8 | -1.2 | 1.1%
O=C(c1ccsc1)N1CCCC(Nc2cccc(F)c2)C1 (stereo unspecified) | -13.3 | -0.2 | 0.8 | 0.4 | 1.1 | -0.9%
Cc1ccc(C(=O)Nc2ccc(Oc3ccc(C(=O)O)c(C(=O)O)c3)cc2)cc1C | -18.8 | -0.5 | 12.4 | 8.7 | 0.7 | -2.6%
CC(C)c1nc(N2CCOCC2)c(C#N)c2c1COC(C)(C)C2 | -1.3 | 1.0 | 2.5 | 6.5 | 2.1 | -2.1%
O=C(Nc1ccc(F)c(Cl)c1)Nc1cnccn1 | -5.4 | -3.4 | 4.4 | -1.1 | 0.1 | 4.7%
O=c1c2ccccc2oc2nc(-c3ccco3)n(-c3ccccc3)c(=O)c12 | -1.0 | -0.9 | 3.3 | 0.4 | 0.3 | 2.5%
COc1ccc(CNC(=O)CSc2nc3ccc(N)cc3s2)cc1 | 4.0 | 0.1 | -5.2 | -6.6 | 0.4 | -0.1%
Cc1ccc(C)c(NC(=S)N2CCC(NC(=O)c3ccc(F)cc3)CC2)c1 | -11.4 | -6.2 | 4.4 | -1.0 | -1.4 | 0.0%
O=C(Nc1nccs1)C1CCCN(S(=O)(=O)c2cccc3cccnc23)C1 (stereo unspecified) | 0.6 | -1.8 | 0.1 | -0.8 | 0.7 | 0.8%
Cn1c(=N)n(CC(O)c2ccco2)c2ccccc21 (stereo unspecified) | -17.5 | -1.9 | -4.5 | 1.7 | -0.1 | -1.3%
O=C(COc1ccc(C(=S)N2CCOCC2)cc1)N1CCOCC1 | -13.5 | -4.4 | 0.8 | 3.1 | 0.5 | 4.7%

Random excerpt: two entries already listed.
SMILES | D2 PAM | D2 agonist | Six1-Eya2 inh | CtBP-E1A blk | TRPML1 ag | PINK1 modulator
O=C(COc1ccc(C(=S)N2CCOCC2)cc1)N1CCOCC1 | -13.5 | -4.4 | 0.8 | 3.1 | 0.5 | 4.7%
O=C(Nc1ccc(F)c(Cl)c1)Nc1cnccn1 | -5.4 | -3.4 | 4.4 | -1.1 | 0.1 | 4.7%

Next section:
SMILES | D2 PAM | D2 agonist | Six1-Eya2 inh | CtBP-E1A blk | TRPML1 ag | PINK1 modulator
O=C(OCC(=O)c1ccc[nH]1)c1ccc2ccccc2n1 | -16.7 | -1.5 | -12.8 | / | 0.7 | -1.8%
COC(=O)CN1C(=O)c2cccc3cccc1c23 | -5.3 | -2.5 | 5.1 | 0.0 | 0.0 | 1.0%
O=C(Cn1nc(Cc2cccnc2)c2ccccc2c1=O)NCCCN1CCCC1=O | -3.2 | -2.8 | 6.2 | 0.7 | 1.1 | 2.0%
Cc1ccc(S(=O)(=O)Nc2ccccc2N2CCCCC2)cc1 | 1.3 | -0.7 | 10.1 | 26.3 | 76.4* | 9.4%
Cc1ccc(NC(=O)c2cc(-n3cnnc3)ccc2Cl)cc1 | -6.0 | -0.5 | -1.1 | -1.3 | -0.5 | 1.9%[38.3 µM]
Cc1cc([N+](=O)[O-])c(N2CCC[C@@H]2C(=O)O)c([N+](=O)[O-])c1 | -3.1 | -2.6 | 7.4 | 4.0 | 0.1 | -1.2%
CCOc1ccc(NC(=O)C2CSC(c3ccncc3)=N2)cc1 (stereo unspecified) | -8.1 | -1.2 | -13.0 | -10.2 | -0.4 | -1.3%
O=C(O)CCCn1nc(C(F)(F)F)c2c1CCCCC2 | 1.1 | -1.8 | 8.8 | 0.2 | 0.9 | -0.3%
COc1ccc(O)c(C(=O)c2cnn(C(=O)c3ccc(C)cc3)c2)c1 | -2.1 | -5.7 | 5.0 | -2.4 | -0.1 | -0.3%
O=C1c2ccccc2C(O)(Cc2ccccc2)N1C1CCCCC1 (stereo unspecified) | 9.4 | 3.8 | 5.2 | 2.3 | -1.5 | -3.3%
Nc1c(-c2ccccc2)nc(Cl)nc1-c1ccccc1 | -7.8 | 2.1 | 38.4 | 20.1 | 1.0 | -1.4%
COc1ccc([C@H]2C[C@H](n3cc(COC(=O)c4ccccc4)nn3)[C@@H](O)CN2C(=O)c2cccs2)cc1 | -0.1 | -3.1 | 0.0 | 0.1 | 0.6 | 0.0%
CCN(C(=O)COC(=O)CCCc1c[nH]c2ccccc12)c1c(N)n(Cc2ccccc2)c(=O)[nH]c1=O | -1.8 | -1.3 | -2.2 | 3.1 | -0.7 | 0.4%
Cc1ccc(/C=N/NC(=O)c2c(C)nc3ccc(Br)cn23)cc1 | 16.4 | 9.8 | -2.0 | / | / | 6.3%
CCCCNc1nc2sc3c(c2c(=O)n1-c1cccc(Cl)c1)CCN(C)C3 | -23.2 | 0.7 | -6.5 | -14.0 | 1.3 | 0.9%
COc1ccc(CCNC(=O)c2ccc(NS(=O)(=O)c3c(C)noc3C)cc2)cc1OC | -9.9 | -2.1 | 3.5 | 8.2 | -1.1 | -0.2%
CC(=O)c1ccc(S(=O)(=O)N2CCC3(CC2)OCCO3)cc1 | -7.7 | 1.6 | 4.0 | / | 0.5 | 3.2%
O=[N+]([O-])c1ccc(Sc2cccc[n+]2[O-])c2nonc12 | -29.0 | -3.6 | -68.2* | -68.2* | 10.0 | 8.7%
Cc1ccccc1NC(=O)c1ccc(NC(=O)C2CCCO2)cc1 (stereo unspecified) | -4.7 | -4.7 | 4.3 | 23.2 | -1.0 | 2.7%
O=C(Cn1c(N2CCN(c3ccccc3)CC2)nc2ccccc21)c1ccccc1 | -2.0 | -2.4 | -5.1 | -4.6 | -0.4 | 1.1%
O=C(O)Cn1c(=S)sc2ccccc21 | -5.9 | 1.5 | 4.9 | 13.3 | 0.8 | -0.9%
O=C(NN1CCOCC1)c1cccc(COc2cccc(Br)c2)c1 | -5.3 | -0.5 | 1.2 | -1.3 | 0.1 | 3.9%
CCc1ccccc1NC(=O)c1ccc(S(=O)(=O)N2CCCC2)cc1 | -0.4 | 0.2 | -1.1 | -7.5 | 1.9 | 1.7%
O=C1CCCN1CN(C(=O)c1ccccc1)c1ccccc1 | -8.6 | -4.7 | 6.3 | -21.3 | -0.6 | -0.1%
Cc1cc(N=Nc2ccccc2)c(NCC(O)C(O)C(O)CO)cc1C (stereo unspecified) | -18.3 | -9.8 | ? | ? | 0.4 | 3.7%
O=C(c1ccc(Cl)cc1)C1CCCN(C(=O)/C=C/c2ccccn2)C1 (stereo unspecified) | -5.8 | -1.2 | -22.0 | 7.0 | 0.5 | -0.7%
O=C(O)c1cc(NC(=O)c2cccc(C(=O)Nc3cc(C(=O)O)cc(C(=O)O)c3)c2)cc(C(=O)O)c1 | -8.2 | -5.8 | 1.7 | 10.5 | 0.0 | 1.9%
CSc1ncc(C(=O)Nc2ccccc2)cn1 | -3.2 | -5.6 | 6.4 | -6.6 | 0.6 | 0.0%
COCCOC(=O)C1=C(C)NC(=S)NC1/C=C/c1ccccc1 (stereo unspecified) | -26.2 | -0.3 | -8.6 | -6.4 | -0.6 | 0.0%
c1cn2cc(-c3ccc4c(c3)OCO4)nc2s1 | 7.3 | 1.2 | -10.9 | -9.3 | 0.5 | /
CC1CCN(C(=O)C2CCN(C(=O)c3cc4sccc4n3Cc3ccc(F)cc3)CC2)CC1 | -0.5 | -1.9 | -18.1 | -2.4 | 1.6 | 2.4%[38.3 µM]
Cc1ccc([N+](=O)[O-])cc1S(=O)(=O)Nc1ccc(N2CCOCC2)cc1 | -6.1 | -0.3 | -0.6 | 0.6 | -0.3 | 0.2%

From PubChem BioAssay
